# Screening results from PubChem.
# miR-21 reporter = qHTS Assay for Modulators of miRNAs and/orActivators of miR-21; HeLa miR-21 FLuc reporter, luciferase, 48 h; Potency, µM (top dose mostly 38.3 µM), for the others: at the top dose reporter change, positive = more light; 340,000 tested, under 10 active; AID 2288, 2010; active = well fitted rising curve with a large enough effect; inconclusive = small, poorly fitted or top-dose-only effect; inactive = no such curve, though single readings can be large or run the other way;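 further: % of control where 0% means no effect; miR-21 action dims this reporter so a rising signal means less miR-21 action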
#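 HeLa cells endogenously expressing miR-21, stably carrying CMV-driven firefly luciferase with a downstream miR-21 binding site, 2000 cells/well. Titrations up to approximately 40 uM, 48 hours; luciferase luminescence read.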
# Rango complex inh = qHTS Assay for Inhibitors of Rango (Ran-regulated importin-beta cargo) - Importin beta complex formation; Potency, µM (highest dose often 92.2 µM), for inactives: top-dose inhibition of complex formation; Rango CFP/YFP FRET sensor + importin beta, 45 min; hit rate 0.031% among 340,000; Importin subunit beta-1 (Homo sapiens), Q14974; active = rising FRET ratio curve, often small or poorly fitted; inconclusive = mostly compound fluorescence or quenching in the first reads; inactive = flat curves in all reads;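 further: potency means the concentration at half of the fitted maximal effect; 0% = DMSO wells and 100% = buffer wells lacking importin beta; nearly all actives have a fitted effect of over 15% in size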
# Target sequence (Q14974 whole entry, looked up): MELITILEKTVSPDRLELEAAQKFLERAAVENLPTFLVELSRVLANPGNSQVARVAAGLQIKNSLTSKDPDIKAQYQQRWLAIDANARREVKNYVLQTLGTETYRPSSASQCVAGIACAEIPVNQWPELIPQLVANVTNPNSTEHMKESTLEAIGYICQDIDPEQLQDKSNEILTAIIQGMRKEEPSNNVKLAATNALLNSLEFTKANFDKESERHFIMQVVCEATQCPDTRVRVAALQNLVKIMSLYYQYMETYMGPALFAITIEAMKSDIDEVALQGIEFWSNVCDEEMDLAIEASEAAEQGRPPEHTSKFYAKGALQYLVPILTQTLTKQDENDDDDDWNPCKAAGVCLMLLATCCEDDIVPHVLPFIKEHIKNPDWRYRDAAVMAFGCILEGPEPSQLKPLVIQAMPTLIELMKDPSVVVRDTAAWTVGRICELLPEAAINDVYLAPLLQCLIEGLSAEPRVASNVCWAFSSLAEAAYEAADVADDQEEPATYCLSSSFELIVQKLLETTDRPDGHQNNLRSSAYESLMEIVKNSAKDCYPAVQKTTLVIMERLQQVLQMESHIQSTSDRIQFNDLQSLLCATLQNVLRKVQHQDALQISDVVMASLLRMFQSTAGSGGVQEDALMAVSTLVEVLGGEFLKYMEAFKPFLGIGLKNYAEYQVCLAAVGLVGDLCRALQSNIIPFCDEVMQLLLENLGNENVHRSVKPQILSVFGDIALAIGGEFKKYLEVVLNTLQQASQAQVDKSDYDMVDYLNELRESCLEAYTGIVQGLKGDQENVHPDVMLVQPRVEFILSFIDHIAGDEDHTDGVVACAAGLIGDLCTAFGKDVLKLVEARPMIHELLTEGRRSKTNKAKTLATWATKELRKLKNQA
#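 FRET biosensor Rango (snurportin 1 IBB between N-terminal EYFP and C-terminal Cerulean), 50 nM in PBS/1 mM DTT/0.02% Tween-20/0.1% BSA, preincubated 5 min RT with compound; 0.125 microM importin beta added, 45 min RT, CFP/YFP FRET ratio read.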
# Rango release inh = qHTS Assay for Inhibitors of RanGTP induced Rango (Ran-regulated importin-beta cargo) - Importin beta complex dissociation; Biochemical FRET Rango-importin beta, RanGTP-induced dissociation; Potency, µM (top dose mostly 46.1 µM), for inactives: at the highest dose activity change, negative = inhibition; hit rate 0.071% among 340,000; AID 540253, 2011; active means falling FRET ratio curve, often poorly fitted, with flat reads before Ran was added; inconclusive means other falling curves, or compound fluorescence or quenching; inactive means flat or rising ratio curve;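 further: potency means the concentration at half of the fitted maximal effect; % of control where 0% means no effect; nearly all actives have a fitted effect of over 45% in size; -100% = wells without RanGTP and RCC1; the record marks most hits as doubtful in a second field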
#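 Compounds preincubate 5 min with complex of recombinant Rango and importin beta in PBS with 1 mM DTT. Ran (0.6 uM) loaded with 2 mM GTP plus 0.2 uM RCC1 starts dissociation; FRET is recorded 45 min later.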
# GLA inh pH 4.5 = qHTS Assay for Inhibitors of Human alpha-Galactosidase at pH 4.5. Alpha-galactosidase A (Homo sapiens), P06280. purified enzyme, 4-MU-alpha-Gal fluorescence, pH 4.5. activity change, negative = inhibition, % at 105 µM. 230,000 tested, under 10 active. AID 1467, 2008; inconclusive = small, poorly fitted or top-dose-only inhibition, or a rising curve; inactive = flat fitted curve, though single readings scatter; no compound was filed as active;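 further: 0% = full activity with enzyme and -100% = basal without enzyme; dose as in the result columns while the protocol names 77 µM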
# The depositor's hits bear a star; ? = inconclusive; . = not tested or not shown. The list is partial; rates above refer to the full screens.
SMILES,miR-21 reporter,Rango complex inh,Rango release inh,GLA inh pH 4.5
O=C(CN1CCN(c2ccccc2)CC1)N/N=C/c1cccc(F)c1,-7%,-2.0%,-6%,7
Cc1ccc(S(=O)(=O)c2cc(C)cc(S(=O)(=O)Nc3ccc(C(=O)O)cc3)c2C)cc1,3%,-0.3%,19%,.
O=C(NCc1ccc(F)cc1)Nc1cccc(Cl)c1,-37%,-2.1%,11%,9
O=C(Nc1cccc(NC(=O)c2cccnc2Cl)c1)c1ccco1,-4%,-2.2%,-2%,2
Cc1c(C(=O)NC2CCS(=O)(=O)C2)oc2ccccc12 (centres undefined),-1%,-0.1%,0%,.
CCN(CC(=O)NC(=O)NCc1ccco1)Cc1ccccc1,.,-0.5%,-15%,.
Cc1ccc(/C=C/C(=O)N2CC(C)CC(C)C2)o1 (centres undefined),-1%,?,-16%,-9
O=C(NCC1CCCO1)C(c1ccncc1)N(Cc1ccc(F)cc1)C(=O)CN1C(=O)c2ccccc2S1(=O)=O (centres undefined),2%,4.0%,-1%,-4
COc1ccccc1C(CNc1ncnc2sc(C)c(C)c12)N(C)C (centres undefined),-9%,-4.0%,-9%,.
COC(=O)c1cc(=O)n(Cc2ccc3c(c2)OCO3)c(=Nc2ccccc2)s1,-1%,0.7%,?,-1
Cc1cc(C)c(NC(=O)c2cc(S(=O)(=O)N3CCOCC3)ccc2F)c(C)c1,0%,4.9%,-6%,.
O=c1oc(-c2ccccc2[N+](=O)[O-])nc2ccccc12,-1%,-3.7%,-6%,-1
O=C(NCc1cccs1)c1ccc(CS(=O)Cc2cccc(Cl)c2)o1 (centres undefined),-5%,-1.9%,-13%,.
Cc1nonc1C(=O)N/N=C/c1ccncc1,4%,-2.8%,1%,3
CCOc1ccc(OCCCC(=O)N2CCN(S(=O)(=O)c3ccc(Cl)cc3)CC2)cc1,.,?,25%,.
CCN(C(=O)Cn1nc(C(=O)O)c2ccccc2c1=O)C1CCCCC1,-1%,1.3%,0%,2
Cc1cc(C)n(C(=O)/C(C#N)=C/N(C)C)n1,0%,-2.1%,13%,9
Cc1ccc(-n2ncc3c2ncn2nc(-c4ccco4)nc32)c(C)c1,-14%,1.2%,19%,11
COC(=O)Cc1nc(Nc2ccccc2)sc1C,-11%,2.2%,-5%,7
CCOC(=O)c1cnc(-c2ccccc2)nc1C(F)(F)F,0%,-4.5%,1%,0
COc1ccc(C(C)(C)C)cc1NC(=O)c1ccoc1C,-12%,0.4%,23%,-5
COc1ccc(OC)c(Nc2nc3nonc3nc2N2CCCCC2)c1,0%,0.0%,15%,0
Cn1c(=O)c2c(ncn2CCC(=O)N/N=C/c2ccncc2)n(C)c1=O,-2%,-0.8%,1%,-1
COCCN(C(=O)C1CCC1)c1nnc(-c2cccnc2)s1,-10%,0.2%,-4%,6
COc1cc(OC)c(C(=O)OCC(=O)Nc2ccc(N3CCOCC3)cc2)cc1OC,.,-1.0%,3%,.

# Rewritten with each value named: part of the list above.
SMILES: COc1ccc(OC)c(Nc2nc3nonc3nc2N2CCCCC2)c1
  miR-21 reporter: 0%	Rango complex inh: 0.0%	Rango release inh: 15%	GLA inh pH 4.5: 0
SMILES: CCOC(=O)c1cnc(-c2ccccc2)nc1C(F)(F)F
  miR-21 reporter: 0%	Rango complex inh: -4.5%	Rango release inh: 1%	GLA inh pH 4.5: 0
SMILES: COc1cc(OC)c(C(=O)OCC(=O)Nc2ccc(N3CCOCC3)cc2)cc1OC
  miR-21 reporter: .	Rango complex inh: -1.0%	Rango release inh: 3%	GLA inh pH 4.5: .
SMILES: CCN(C(=O)Cn1nc(C(=O)O)c2ccccc2c1=O)C1CCCCC1
  miR-21 reporter: -1%	Rango complex inh: 1.3%	Rango release inh: 0%	GLA inh pH 4.5: 2

# Next structures follow.
SMILES,miR-21 reporter,Rango complex inh,Rango release inh,GLA inh pH 4.5
N#C/C(=C\c1ccc([N+](=O)[O-])cc1)C(=O)NCCCn1ccnc1,2%,0.4%,4%,4
C/C(=N/OC(=O)c1cccc(C(F)(F)F)c1)c1cnccn1,1%,-0.1%,-12%,9
COc1nccnc1NS(=O)(=O)c1ccc(NC(=S)NC(=O)/C=C/c2ccccc2)cc1,0%,-0.2%,-9%,-2
O=[N+]([O-])c1ccc(OCC(O)CN(CCO)CCO)cc1 (centres undefined),2%,-2.4%,8%,1
COc1cc(C(=O)Nc2ccc(S(=O)(=O)N(C)c3ccccc3)cc2)cc(OC)c1OC,17%,0.2%,15%,-28
O=C(Cc1c(F)cccc1Cl)NCc1cccnc1,-2%,0.6%,3%,.
O=c1sc(/C=N/Nc2ccccc2)c(Cl)n1Cc1ccccc1,-30%,0.4%,5%,7
Cc1ccc2cccc(OCCCOc3ccccc3CO)c2n1,-10%,1.1%,-1%,.
Cc1ccc2oc(=O)c3cc(C(=O)N4CCN(C)CC4)sc3c2c1,-5%,-0.6%,14%,-3
COc1ccc(OCC(=O)OCC(=O)NC2CCCC2)cc1,.,9.3%,-5%,.
Cc1nc2ncnn2c(N2CCC(C(=O)NC3CCCC3)CC2)c1Cc1ccccc1,-9%,-0.2%,-5%,-18
Cc1cccc(N2CCN(C(C)C(=O)N3CCc4ccccc43)CC2)c1C (centres undefined),1%,0.3%,2%,.
Cn1nc(C(=O)N2CCOCC2)c2ccccc2c1=O,2%,-1.1%,-8%,0
CCOC(=O)CSc1nnc(Cn2nnc(-c3ccccc3)n2)n1CC,-2%,1.9%,-10%,4
COc1ccccc1OCC(=O)Nc1nnc(C2CCCC2)s1,-24%,-1.6%,-14%,.
CCCS(=O)(=O)c1nc(S(=O)(=O)c2ccc(C)cc2)c(N2CC(C)OC(C)C2)s1 (centres undefined),13%,-2.1%,8%,.
CC(Sc1nnc(Cc2ccc3c(c2)OCO3)o1)C(N)=O (centres undefined),-3%,?,4%,11
CCc1ccc(NC(=O)C(C)Oc2nnc(-c3cccs3)c(-c3cccs3)n2)cc1 (centres undefined),1%,-0.4%,-7%,-6
COc1ccc(CCNC(=O)C(=O)NCC2CCCN2S(=O)(=O)c2cc(C)ccc2C)cc1 (centres undefined),.,-2.2%,11%,.
CCC(=O)NC1=C(C#N)C2(CCCC2)Cc2ccccc21,-2%,-1.0%,7%,-1
COc1ccc(NC2=CC(c3ccc(OC)cc3)N(c3ccc(OC)cc3)C2=O)cc1 (centres undefined),-15%,-3.6%,1%,-27
Cc1ccccc1C(C)NC(=O)COC(=O)Cn1cc(C(F)(F)F)ccc1=O (centres undefined),.,-2.3%,-10%,.
COc1cc(/C=N/NC(=O)c2cccc3ccccc23)cc(OC)c1OC,3%,-0.2%,-22%,.
CC(C)C[C@H](NC(=O)c1nc[nH]c1C(=O)N1CCc2ccccc2C1)C(=O)OC(C)(C)C,8%,-3.6%,?,-2
O=C(O)CCn1cc(/C=C/C(=O)c2ccc(Cl)cc2)c(-c2cccc(Br)c2)n1,6%,-0.8%,-5%,1

# The closing 4 records of the section before come first, to join the parts.
SMILES,miR-21 reporter,Rango complex inh,Rango release inh,GLA inh pH 4.5
Cc1ccccc1C(C)NC(=O)COC(=O)Cn1cc(C(F)(F)F)ccc1=O (centres undefined),.,-2.3%,-10%,.
COc1cc(/C=N/NC(=O)c2cccc3ccccc23)cc(OC)c1OC,3%,-0.2%,-22%,.
CC(C)C[C@H](NC(=O)c1nc[nH]c1C(=O)N1CCc2ccccc2C1)C(=O)OC(C)(C)C,8%,-3.6%,?,-2
O=C(O)CCn1cc(/C=C/C(=O)c2ccc(Cl)cc2)c(-c2cccc(Br)c2)n1,6%,-0.8%,-5%,1
CC(=O)N1CCN(C(=S)c2ccc(-c3ccc(Cl)cc3)o2)CC1,-30%,1.8%,22%,3
O=C1/C(=C/N(C(=O)c2ccco2)c2ccc(Cl)cc2)Sc2ccccc21,-58%,?,?,-7
CCOC(=O)c1ccc(NC(=O)C(C)Sc2nc(O)c(-c3ccccc3)c(=O)[nH]2)cc1 (centres undefined),-2%,-0.1%,6%,1
COc1ccc(CC(=O)OCC(=O)Nc2ccc(F)cc2)cc1,.,1.8%,8%,.
CCOc1ccc2nc(NC(=O)NC3CCCCC3)sc2c1,-8%,0.2%,-4%,.
CC(=O)c1cc(CN2CCN(CCC(C)C)C(CCO)C2)cs1 (centres undefined),1%,-1.1%,-23%,-5
CSCc1nnc(NC(=O)c2ccc(S(=O)(=O)N(C)C)cc2)o1,1%,0.0%,-14%,8
O=C(Cc1ccccc1[N+](=O)[O-])NCc1ccco1,-17%,-2.4%,3%,6
CCOc1cc(/C=C2/C(=O)NN(c3cccc(Cl)c3)C2=O)ccc1O,4%,-1.5%,15%,.
Cc1cc(N/C(=N\S(=O)(=O)c2ccc(F)cc2F)c2ccccc2)no1,-10%,?,-12%,0
CCc1cc(C(=O)Cc2ccc(F)cc2)c(O)cc1O,20%,6.0%,-5%,4
COC(=O)COc1cccc2c(=O)n(CC(=O)NCCc3ccc(OC)c(OC)c3)ccc12,2%,2.8%,23%,18
CCc1ccc(CN2CCC(n3nccc3NC(=O)c3ccc4c(c3)OCO4)CC2)cc1,11%,7.1%,-1%,.
COc1ccc(NC(=O)CSc2nnnn2C2CCCC2)c(OC)c1,6%,1.1%,1%,.
O=C(CSc1nnc(CNC(=O)c2ccccc2)o1)NCCc1ccccc1,2%,0.1%,-9%,.
COc1ccc(-c2nnc(SC)n2C)cc1,-10%,2.8%,2%,10
COc1ccccc1/C=C/C(=O)N1CCc2cc(OC)c(OC)cc2C1C (centres undefined),2%,4.5%,3%,.
COc1cc(C2NC(=O)NC(O)(C(F)(F)F)C2C(C)=O)cc(OC)c1OC (centres undefined),-8%,0.1%,-8%,0
Cc1ccc(N2CC(C(=O)Nc3ccccc3C(=O)NC3CCCCC3)CC2=O)cc1C (centres undefined),.,2.1%,0%,.
CC(=O)Nc1nnc(SCc2ccc(F)cc2)s1,-46%,1.0%,-6%,8
CCOc1ccc(CCNC(=O)COC(=O)c2cccc(S(=O)(=O)N3CCOCC3)c2)cc1OCC,.,-3.0%,5%,.
COc1cc(OC)cc(-c2cc3nc(C)c(CCC(=O)NCc4ccccc4)c(C)n3n2)c1,?,2.7%,-4%,-4
CC(C)N(C(=O)/C=C/c1cccc([N+](=O)[O-])c1)C(C)C,-10%,0.7%,4%,-1
S=C(NCc1ccc(Cl)cc1)NC1CCN(Cc2ccccc2)CC1,20%,6.8%,0%,-11
O=C(NC1CCS(=O)(=O)C1)c1ccccc1Cl (centres undefined),.,1.9%,-14%,.
# Additional entries
SMILES,miR-21 reporter,Rango complex inh,Rango release inh,GLA inh pH 4.5
Cc1ccc(N2C(=O)C3CCC(C)(C2=O)C3(C)C)cc1C (centres undefined),1%,0.5%,9%,10
CCOc1nc(C)ccc1-c1noc(C)n1,1%,3.4%,5%,10
CCC(=O)c1ccc(OCC(=O)Nc2ccccc2C(=O)N2CCCCC2)cc1,.,?,-1%,.
COc1ccccc1NC(=O)CSc1nnc(COc2ccccc2OC)n1C,-4%,-1.5%,6%,9
CCOc1ccc(S(=O)(=O)NCCC(=O)NCc2ccco2)cc1,-5%,1.8%,14%,15
O=C1N(Cc2cccc(Cl)c2)C[C@@H]2C[C@@H](c3cccc4cccnc34)N3CCC[C@@]123,3%,?,?,-6
CC1CCN(c2nc3ccccc3nc2C(C#N)C(=O)NC2CCCCC2)CC1 (centres undefined),-7%,.,.,-2
O=C1CC(N(CCc2ccccc2)C(=S)Nc2ccccc2)C(=O)N1c1ccc(Br)cc1 (centres undefined),?,0.5%,-25%,-7
COc1ccccc1C(=O)OCCN=C1NS(=O)(=O)c2ccccc21,0%,-0.2%,1%,.
CCCn1c(N)c(N2CCCCC2)c(=O)n(CC(=O)Nc2ccc(OC(F)(F)F)cc2)c1=O,1%,0.6%,-4%,-1
